Screens as filed in PubChem.
gsp ag: activates gsp, the McCune-Albright syndrome mutation. gsp mutant cells, cAMP HTRF, 30 min; control for the full effect not named in the record. Potency, µM (series often up to 76.9 µM), without a hit: top-dose activation (cAMP increase), hits mostly activators. hit rate 0.13% among 340,000; active = well fitted activation curve with a large enough effect; inconclusive = small, poorly fitted or top-dose-only effect, or another doubt; inactive = no such curve, though single readings can be large or run the other way; cell line not stated here;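 note: phosphodiesterase inhibitor Ro 20-1724 added with compounds to block cAMP breakdown; potency is the fitted concentration of half-maximal effect; nearly all actives have a fitted effect of over 60% in size; about a fifth of the inactives were tested at one dose only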
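Cells in DMEM/10% FBS with G418 were pretreated with compounds in DMSO plus […] (300 uM stock) for 30 min at 37C. cAMP was measured by HTRF (cAMP-d2 plus anti-cAMP antibody-K) after 30 min at room temperature.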
D2 agonist: human D2 receptor agonism in beta-arrestin assay; activation, % (no concentration beside the values); hit rate 0.084% among 360,000; P14416; AID 624465; DiscoveRx PathHunter D2 beta-arrestin, luminescence, 90 min; 100% = 57 uM dopamine signal; in the data active = activation above about 40%; inconclusive = about 15% to 40%; inactive = below about 15%; note: compound concentration not given in the record; the text of the record calls up to 30% inactive
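DiscoveRx PathHunter D2 beta-arrestin cells (2,100/well) attached overnight, then compound-stimulated 90 min at 37 C in HBSS/10 mM HEPES/0.1% Tween-20 buffer; beta-galactosidase complementation read by luminescence after 1 h at ambient temperature. Dopamine 57 uM final (EC100) as control.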
CtBP-E1A blk: blocks the CtBP interaction with E1A; AlphaScreen GST-E1A/His-CtBP binding, 1536-well; active compounds read low; control for the full effect not named in the record; activity change, % (concentration not given with the values); hit rate 0.49% among 340,000; AID 651724; in the data active means activity change below about -65%; inconclusive means about -30% to -65%; inactive means above about -30%; note: % is set by controls: 0 for no effect and ±100 for the full control effect
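AlphaScreen with 125 nM GST-E1A and 125 nM His-CtBP (5X stocks) in Tris pH 8.0, 300 mM NaCl, BSA, Tween 20, TCEP. Compounds preincubated 2 h at 37 deg C, then glutathione donor/nickel acceptor beads added for 1 h at 37 deg C in dark.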
gsp antag: antagonists of gsp mutant (McCune-Albright syndrome); gsp-mutant cells, cAMP HTRF, 30 min; control for the full effect not named in the record; Potency, µM (series often up to 76.9 µM), for inactives: top-dose activity change, negative = inhibition, most hits filed as inhibitors; hit rate 0.4% among 340,000; AID 624288; active = falling curve of any shape with a large fitted effect; inconclusive = falling curve, mostly with a smaller effect; inactive = flat or rising curve; cell line not stated here;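 note: intracellular cAMP measured with PDE inhibitor Ro 20-1724 present during compound exposure; potency is the fitted concentration of half-maximal effect; % is set by controls: 0 for no effect and ±100 for the full control effect; nearly all actives have a fitted effect of over 65% in size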
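HTRF cAMP measurement after 30 min RT detection following 30 min, 37C compound treatment alongside […] (added as 300 uM solution) in G418-selected cells seeded at 2000/well and grown 16–24 h.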
D2 potentiator: human D2 receptor positive allosteric modulation; potentiation, % (concentration not given with the values); AID 624464; hit rate 0.23% among 360,000; DiscoveRx D2 beta-arrestin cells, luminescence, 90 min; 100% = 57 uM dopamine signal; active = potentiation of 50% or more; inconclusive = 30% to 50%; inactive = 30% or less;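 note: compound concentration not given in the record; tested on top of an EC20 dose of dopamine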
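PathHunter D2 cells, attached overnight at 37 deg C, received compound in DMSO plus dopamine at EC20 (50 nM final) for 90 min at 37 deg C. Beta-arrestin recruitment was read as luminescence after 1 h with detection reagent at ambient temperature.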
Six1-Eya2 inh: inhibitors of human Six1/Eya2 interaction. Q15475+O00167. AlphaScreen GST-Six1/His-Eya2 binding, biochemical; active compounds read low; control for the full effect not named in the record. activity change, % (test concentration not listed). hit rate 0.56% among 360,000. AID 651725; in the data active = activity change below about -65%; inconclusive = about -30% to -65%; inactive = above about -30%; note: % is set by controls: 0 for no effect and ±100 for the full control effect
Target sequence (O00167 whole entry, looked up): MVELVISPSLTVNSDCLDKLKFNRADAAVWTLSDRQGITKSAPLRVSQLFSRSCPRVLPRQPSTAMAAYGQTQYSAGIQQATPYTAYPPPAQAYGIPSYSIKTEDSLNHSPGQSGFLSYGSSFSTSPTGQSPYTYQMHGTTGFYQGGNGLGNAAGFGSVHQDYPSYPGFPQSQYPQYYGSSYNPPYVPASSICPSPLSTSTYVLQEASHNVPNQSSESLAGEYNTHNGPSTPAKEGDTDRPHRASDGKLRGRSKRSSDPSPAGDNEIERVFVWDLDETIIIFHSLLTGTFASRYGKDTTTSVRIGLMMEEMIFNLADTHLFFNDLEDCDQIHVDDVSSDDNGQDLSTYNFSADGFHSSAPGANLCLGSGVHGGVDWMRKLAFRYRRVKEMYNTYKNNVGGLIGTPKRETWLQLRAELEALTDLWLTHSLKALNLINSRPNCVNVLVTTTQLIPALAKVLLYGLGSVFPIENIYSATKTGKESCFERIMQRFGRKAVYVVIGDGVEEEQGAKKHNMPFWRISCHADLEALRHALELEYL
Target sequence (Q15475 whole entry, looked up): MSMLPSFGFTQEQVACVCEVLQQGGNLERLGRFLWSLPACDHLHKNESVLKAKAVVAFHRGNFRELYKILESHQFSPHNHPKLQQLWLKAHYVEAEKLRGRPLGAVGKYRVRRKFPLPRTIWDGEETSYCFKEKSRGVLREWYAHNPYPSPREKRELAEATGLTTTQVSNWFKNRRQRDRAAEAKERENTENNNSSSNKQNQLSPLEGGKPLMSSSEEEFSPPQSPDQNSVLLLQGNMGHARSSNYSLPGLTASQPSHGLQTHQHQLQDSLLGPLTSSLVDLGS
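Six1/Eya2 binding was read as AlphaScreen signal after compounds were pinned into GST-Six1 plus His-tagged Eya2 (5X stock 250/500 nM) in pH 8.0 Tris/NaCl/TCEP buffer, beads added, then incubated 1 h, 37 C, dark.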
Numbers without * were called inactive; u = inconclusive; x = not tested or not shown; [ ] = dose if it differs, or a comment.

SMILES | gsp ag | D2 agonist | CtBP-E1A blk | gsp antag | D2 potentiator | Six1-Eya2 inh
C[C@H](CO)N1C[C@H](C)[C@@H](CN(C)S(=O)(=O)c2ccc(F)cc2)Oc2ccc(NC(=O)NC3CCCCC3)cc2C1=O | x | 0.2 | -1 | -11% | -1 | -2
COc1cc(C(=O)N2C(=O)c3cccc(N)c3C2=O)cc(OC)c1OC | 11%[15.4 µM] | -5.6 | 4 | 7% | 4 | 18
CC(C)NC(=O)Nc1cccc2c1O[C@H](CN(C)C(=O)Nc1ccccc1)[C@@H](C)CN([C@H](C)CO)C2=O | -61%[inhibitor] | -2.8 | -18 | 4% | -14 | 9
CCCC1C2CN(C(C)=O)CC=C2C(C#N)=C(N)C1(C#N)C#N (stereo not given) | 2% | -4.2 | 2 | 15% | -21 | -4
CCOc1ccc(N(C)C(=O)CCc2nnc3ccc(N4CCC5(CC4)OCCO5)nn23)cc1 | u | 2.6 | -8 | 9% | -6 | 0
CN(C)C(CNc1ccc([N+](=O)[O-])cc1C#N)c1ccccc1 (stereo not given) | 8%[15.4 µM] | -2.5 | -2 | 13% | -4 | 0
CC1=C(C#N)C(=O)NC(C)(C)C1 | 19% | -1.9 | 3 | 9% | -5 | 0
Cc1cccc(CSCC(=O)NCc2ccc(S(N)(=O)=O)cc2)c1 | 2%[15.4 µM] | 5.9 | 7 | 10% | 0 | 9
C/C(CCc1ccccc1)=N\NC(=O)C(=O)Nc1cccc(Cl)c1 | -18% | -5.4 | -2 | -12% | -2 | 4
CC(=O)N1CCc2cc(S(=O)(=O)CCC(=O)Nc3cc(C)cc(C)c3)ccc21 | 16% | -4.4 | -2 | 2% | -8 | 4
Cc1cc(OCC(=O)NNC(=O)c2ccncc2)ccc1C(C)C | -18% | -3.9 | 0 | 11% | 1 | 0
CCOc1ccccc1NC(=O)c1nc(S(=O)(=O)Cc2ccccc2)ncc1Cl | -49%[inhibitor] | -11 | x | 17% | -17 | -1
CC(C)OC(=O)CCNc1n[nH]c(=O)[nH]c1=O | 3% | 3.9 | -7 | 14% | 3 | 5
O=C(COC(=O)C1CC(=O)N(c2ccc3c(c2)OCCO3)C1)Nc1ccc2c(c1)CCC2 (stereo not given) | 18% | -0.5 | 2 | -20% | 0 | 3
CC(NC(=O)CNC(=S)N(Cc1cccs1)C1CCCC1)c1ccccc1 (stereo not given) | u | 1.8 | 1 | -10% | -8 | -9
O=C(N/N=C/c1ccc([N+](=O)[O-])o1)C(=O)Nc1ccc(C(=O)O)cc1 | 10% | -1.4 | -4 | 11% | -5 | -2
Cc1cccnc1NC(=O)NC(=O)c1ccc(C(C)(C)C)s1 | 2% | -1.8 | -14 | 6% | -6 | 6
O=C(COC(=O)Cc1cccc2ccccc12)Nc1ccccc1-c1ccccc1 | u | -3.1 | -11 | -3% | -7 | -9
O=C(COC(=O)C1(c2ccccc2)CC1)NNC(=O)c1ccccc1F | -2% | -3.1 | 2 | 6% | 6 | -1
Cc1ccc(/C=N/NC(=O)c2n[nH]c3c2CCCC3)cc1 | 20%[15.4 µM] | -2.8 | 4 | -4% | -6 | 0
Cn1cccc1/C=N/NC(=O)c1ccccn1 | -6% | -2.9 | -26 | -5% | 2 | -19
CN(C(=O)c1ccc(NC(=O)Cc2cccc(NC(=O)C3CCN(C(=O)c4ccccc4)CC3)c2)cc1)C1CCCC1 | -37%[inhibitor] | 0.1 | -1 | 4% | -9 | -23
COc1ccccc1-n1nnnc1SCC(=O)NCC1(N2CCCCC2)CCCCC1 | -3%[15.4 µM] | -2.7 | -5 | -1% | -9 | -11
Cc1nc(Oc2ccccc2)c2ccccc2n1 | 5%[15.4 µM] | -8.4 | 7 | 13% | -9 | 1
Cc1ccccc1N1CC2=C(C1=O)C(c1ccccc1)NC(=O)N2C (stereo not given) | 8%[15.4 µM] | 1.0 | -1 | -1% | -5 | 1
O=C(NCc1ccc(F)cc1)C(c1ccccc1)c1ccccc1 | -4% | -3.1 | -1 | -5% | -2 | 8
O=C(CNCCO)N1CCc2ccccc21 | 0% | -4.0 | -6 | 4% | -11 | -4
CN(c1cccc(NC(=O)CN(c2cccc(F)c2)S(C)(=O)=O)c1)S(C)(=O)=O | 3%[15.4 µM] | -3.6 | 7 | -11% | -7 | 3
COc1ccc(C(=O)NCCCNC(=O)c2cccnc2)cc1OC | u | -6.0 | -1 | 9% | -7 | -5
O=C(NCCc1ccccc1)C(=O)NCC1(c2ccccc2)CCCC1 | u | -2.2 | 2 | 8% | -12 | 8

Reprinted from above, ten compounds:
SMILES | gsp ag | D2 agonist | CtBP-E1A blk | gsp antag | D2 potentiator | Six1-Eya2 inh
C[C@H](CO)N1C[C@H](C)[C@@H](CN(C)S(=O)(=O)c2ccc(F)cc2)Oc2ccc(NC(=O)NC3CCCCC3)cc2C1=O | x | 0.2 | -1 | -11% | -1 | -2
COc1cc(C(=O)N2C(=O)c3cccc(N)c3C2=O)cc(OC)c1OC | 11%[15.4 µM] | -5.6 | 4 | 7% | 4 | 18
CC(C)NC(=O)Nc1cccc2c1O[C@H](CN(C)C(=O)Nc1ccccc1)[C@@H](C)CN([C@H](C)CO)C2=O | -61%[inhibitor] | -2.8 | -18 | 4% | -14 | 9
CCCC1C2CN(C(C)=O)CC=C2C(C#N)=C(N)C1(C#N)C#N (stereo not given) | 2% | -4.2 | 2 | 15% | -21 | -4
CCOc1ccc(N(C)C(=O)CCc2nnc3ccc(N4CCC5(CC4)OCCO5)nn23)cc1 | u | 2.6 | -8 | 9% | -6 | 0
CN(C)C(CNc1ccc([N+](=O)[O-])cc1C#N)c1ccccc1 (stereo not given) | 8%[15.4 µM] | -2.5 | -2 | 13% | -4 | 0
CC1=C(C#N)C(=O)NC(C)(C)C1 | 19% | -1.9 | 3 | 9% | -5 | 0
Cc1cccc(CSCC(=O)NCc2ccc(S(N)(=O)=O)cc2)c1 | 2%[15.4 µM] | 5.9 | 7 | 10% | 0 | 9
C/C(CCc1ccccc1)=N\NC(=O)C(=O)Nc1cccc(Cl)c1 | -18% | -5.4 | -2 | -12% | -2 | 4
CC(=O)N1CCc2cc(S(=O)(=O)CCC(=O)Nc3cc(C)cc(C)c3)ccc21 | 16% | -4.4 | -2 | 2% | -8 | 4

The list continues:
SMILES | gsp ag | D2 agonist | CtBP-E1A blk | gsp antag | D2 potentiator | Six1-Eya2 inh
NS(=O)(=O)c1ccc(CNC(=S)NC(=O)c2ccco2)cc1 | 2% | -1.9 | -3 | 3% | -4 | -2
CCOC(=O)Nc1sc2nc(C)cc(C)c2c1-n1cccc1 | -22% | -3.0 | -9 | 7%[15.4 µM] | -9 | -22
Cc1ccc(-n2cc(CN(C)Cc3nccn3C)c(-c3cccc(C)c3)n2)cc1 | -3% | -3.1 | -21 | -6% | -21 | -25
Cc1ccccc1CNC(=O)/C=C\C(=O)O | 0% | -3.0 | 1 | 12% | -5 | 9
O=C(OCc1ccccc1)/C(=C/c1cccc([N+](=O)[O-])c1)NC(=O)c1ccco1 | 8% | -1.0 | u | -18% | -1 | -7
COc1cc(CC(=O)OCC(=O)Nc2cc([N+](=O)[O-])ccc2Cl)cc(OC)c1OC | -17% | 0.0 | -5 | -15% | -22 | -11
Cc1nnc(Nc2ccc(C(=O)NCCO)cc2)c2ccccc12 | 18% | -1.7 | -21 | 4% | 7 | -19
CCCCNC(=O)C1COc2ccccc2O1 (stereo not given) | -3% | 0.8 | -22 | 2% | -5 | -6
Cc1cc(C(=O)CSc2ncccn2)c(C)n1-c1cccc(F)c1 | -19% | 2.8 | 0 | -13% | -7 | -9
CCN(CC)c1nc2n(c(=O)n1)CCN2CC | -55%[inhibitor] | -4.7 | -2 | 9% | -8 | -2
CC(=O)N1CCN(c2ccc([N+](=O)[O-])c(-n3nc(C)cc3C)c2)CC1 | 0% | 0.8 | -17 | 3% | -14 | -2
CCC(=O)Nc1cccc(NC(=S)NC(=O)c2ccc(C)cc2)c1 | 1% | -2.6 | x | 2% | -9 | 2
Nc1nc(COC(=O)C2CC(=O)N(Cc3ccccc3Cl)C2)nc(Nc2ccccc2)n1 (stereo not given) | 9% | 1.4 | -27 | -5% | 0 | -3
COc1ccc(C)cc1S(=O)(=O)Nc1ccccc1C | -26% | -1.6 | 2 | 7% | -5 | 3
CCOC(=O)C1(C)NC(c2ccc(OC)cc2OC)C2C(=O)N(c3cccc(OC)c3)C(=O)C21 (stereo not given) | -6% | -4.5 | 0 | 16% | -21 | 0
Cc1cc(C)cc(N(C(=O)CNC(=O)c2ccco2)C(C(=O)NC2CCCCC2)c2cccnc2)c1 (stereo not given) | 10%[15.4 µM] | -14 | 20 | -2% | -12 | 6
Cc1nc(SCC(=O)N2CC(C)OC(C)C2)nc(C)c1C (stereo not given) | 3% | -0.7 | 0 | 3% | -1 | 9
CC1COC(C)(CC(=O)NN2C(=O)c3ccccc3C2=O)O1 (stereo not given) | 10%[15.4 µM] | -3.8 | -1 | -1% | -1 | 4
COc1ccc(CCN(C)C(=O)/C=C/c2c(Cl)nc3ccccn23)cc1OC | -3%[15.4 µM] | -3.8 | -18 | x | -3 | -3
Cc1ccnc(Nc2cccnc2)n1 | x | -4.6 | 6 | x | 0 | 7
Cc1ccc(-c2csc(NC(=O)C[n+]3cc(-c4ccccc4)n4c3CCC4)n2)cc1 | 5% | 7.3 | 18 | 4% | 4 | 14
C[C@H](NC(=O)CCCn1nnc2ccccc2c1=O)C(=O)O | -9%[15.4 µM] | -3.1 | 2 | 11% | -1 | -3
Cc1ncn(-c2ccccc2)c1-c1ccccc1 | 3% | -1.4 | -13 | 3% | -9 | -14
O=C(CN1CC(=O)Oc2ccccc21)OCC(=O)c1cccc(Br)c1 | -13% | -8.0 | u | -14% | -1 | -82*
Cc1ccc(OCC(=O)NNC(=O)CSc2ncc(C#N)c(N)n2)cc1 | 11% | -1.8 | -18 | 13% | -7 | -24
C[C@H](CO)N1C[C@H](C)[C@@H](CN(C)S(=O)(=O)c2ccccc2)Oc2c(NS(=O)(=O)c3ccc(F)cc3)cccc2C1=O | u | 2.5 | x | -14% | -4 | -9
COCCn1nnnc1C(c1cccs1)N1CCN(c2ccccc2)CC1 (stereo not given) | u | -2.3 | 36 | -2% | -7 | 16
Cc1ccc(S(=O)(=O)N2CCN(C(=O)[C@H](Cc3ccccc3)NC(=O)c3ccco3)CC2)cc1 | 26% | 11 | 4 | -9% | -1 | 3
CCn1c(SCC(=O)NC2CCCC2)nnc1-c1ccncc1 | 24% | 10.0 | 4 | 19% | -3 | 10
CCOc1ccc(NC(=O)N(CCN2CCOCC2)Cc2ccc3c(c2)CCCN3CC)cc1 | -4% | 8.4 | -21 | -4% | 5 | -28
O=C(NCc1ccc2c(c1)OCO2)C1CC(=O)N(c2ccc(Cl)cc2)C1 (stereo not given) | 5% | -5.0 | -2 | -2% | -3 | 0
